Screens: PubChem BioAssay, National Center for Advancing Translational Sciences (NCATS)
Sfp PPTase inh: blocks B. subtilis Sfp PPTase activity | Q9F4F7 | Biochemical Sfp PPTase activity, qHTS | Potency, µM, inactives show max response, negative = inhibition, most hits filed as inhibitors | 3.5% of 310,000 active; active means well fitted inhibition curve with a large enough effect; inconclusive means small, poorly fitted or top-dose-only effect, or another doubt; inactive means no such curve, though single readings can be large or run the other way;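 further: the enzyme is Sfp with the accession as filed and its product quenches rhodamine fluorescence; potency means the concentration at half of the fitted maximal effect; 0% = enzyme reaction without inhibitor and -100% = no enzyme wells; top concentration of the series not given in the record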
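Reaction rates are the 30-min fluorescence difference (ex 525, em 598 nm) in wells containing 15 nM Sfp, 5 uM rhodamine-CoA and 12.5 uM BHQ-2-YbbR at pH 7.6 with 10 mM MgCl2.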
ClpP mod: qHTS Assay for Activators of ClpP; ATP-dependent Clp protease proteolytic subunit (Bacillus subtilis (strain 168)), P80244; purified B. subtilis ClpP, FRET peptide cleavage, 20 min; Potency, µM (series often up to 57.5 µM), inactives show at the highest dose activity change, negative = active; 1.9% of 340,000 active; active = well fitted falling curve with a large enough effect; inconclusive = small, poorly fitted or top-dose-only effect; inactive = no such curve, though single readings can be large or run the other way; further: potency means the concentration at half of the fitted maximal effect; the source files actives as falling curves though it sought activators and does not explain the sign; nearly all actives have a fitted effect of over 65% in size; many hits overshoot -100%
Target sequence (P80244 whole entry, looked up): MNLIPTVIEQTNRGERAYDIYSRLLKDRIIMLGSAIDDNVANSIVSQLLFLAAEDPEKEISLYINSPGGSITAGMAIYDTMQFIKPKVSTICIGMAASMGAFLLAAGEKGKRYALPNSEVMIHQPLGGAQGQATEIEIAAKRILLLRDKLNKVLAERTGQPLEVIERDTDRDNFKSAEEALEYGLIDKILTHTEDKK
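Buffer: 100 mM Tris/HCl pH8, 100 mM KCl, 0.05% low protease BSA, 2.5% glycerol, 0.01% Tween-20. ClpP 10 microg/mL final; 20 min RT; delta FRET normalized to ADEP and DMSO controls.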
TRPV1 PAM: potentiators of human vanilloid receptor 1 (TRPV1). Q8NER1. TRPV1-expressing cells, Fluo-8 calcium influx, capsaicin EC20 potentiation; host cell line not named in the record; control for the full effect not named in the record. potentiation, % at 8.33 µM. 0.02% of 320,000 active. AID 540277; active means potentiation above 80%; inconclusive means 30% to 80%; inactive means below 30%; further: 0% is about no effect
Target sequence (Q8NER1 whole entry, looked up): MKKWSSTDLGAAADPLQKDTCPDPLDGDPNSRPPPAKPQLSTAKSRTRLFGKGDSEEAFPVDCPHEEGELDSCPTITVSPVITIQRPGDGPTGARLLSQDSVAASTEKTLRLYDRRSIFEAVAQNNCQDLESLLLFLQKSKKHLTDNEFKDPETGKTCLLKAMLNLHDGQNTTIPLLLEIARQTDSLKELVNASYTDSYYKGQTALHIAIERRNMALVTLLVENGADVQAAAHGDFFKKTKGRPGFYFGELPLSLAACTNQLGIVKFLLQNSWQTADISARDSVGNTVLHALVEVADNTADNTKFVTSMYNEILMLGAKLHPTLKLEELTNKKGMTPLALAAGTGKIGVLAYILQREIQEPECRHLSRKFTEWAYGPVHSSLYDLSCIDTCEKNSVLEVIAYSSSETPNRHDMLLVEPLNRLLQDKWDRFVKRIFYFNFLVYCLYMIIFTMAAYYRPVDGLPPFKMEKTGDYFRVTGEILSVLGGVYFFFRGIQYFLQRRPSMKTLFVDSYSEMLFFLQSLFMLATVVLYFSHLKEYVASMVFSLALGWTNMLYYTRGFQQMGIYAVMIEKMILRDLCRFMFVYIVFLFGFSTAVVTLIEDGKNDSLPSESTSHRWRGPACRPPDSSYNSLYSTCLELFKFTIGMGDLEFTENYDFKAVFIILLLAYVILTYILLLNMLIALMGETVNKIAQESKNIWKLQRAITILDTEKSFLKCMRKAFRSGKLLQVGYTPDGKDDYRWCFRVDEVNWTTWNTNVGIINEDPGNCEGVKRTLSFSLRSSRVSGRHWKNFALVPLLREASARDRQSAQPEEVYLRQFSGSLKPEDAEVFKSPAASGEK
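TRPV1-expressing cells were cultured overnight at 35.5C and loaded with Fluo-8 calcium dye for 40 to 90 min at room temperature. After a 10 s baseline, compound was added and calcium influx was read kinetically for 3 min (ex 480/em 520 nm).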
gsp antagonist: antagonizes gsp, the McCune-Albright syndrome mutation. Potency, µM (highest dose often 76.9 µM), for inactives: top-dose activity change, negative = inhibition, actives largely listed as inhibitors. 0.4% of 340,000 active. gsp-mutant cells, cAMP HTRF, 30 min; control for the full effect not named in the record; active = falling curve of any shape with a large fitted effect; inconclusive = falling curve, mostly with a smaller effect; inactive = flat or rising curve; cell line not stated here;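 further: intracellular cAMP measured with PDE inhibitor Ro 20-1724 present during compound exposure; potency means the concentration at half of the fitted maximal effect; on the % scale 0 is the no-effect control and ±100 the full control effect; nearly all actives have a fitted effect of over 65% in size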
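Measurement of cellular cAMP by homogeneous time-resolved fluorescence following a 30 min compound exposure at 37C. The PDE inhibitor […] was present throughout; the assay buffer was DPBS with 0.05% BSA and 0.005% Tween 20.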
CtBP-E1A inh: CtBP/E1A binding inhibition; AlphaScreen GST-E1A/His-CtBP binding, 1536-well; stronger effect = lower value; control for the full effect not named in the record; activity change, % (test concentration not listed); 0.49% of 340,000 active; AID 651724; in the data active means activity change below about -65%; inconclusive means about -30% to -65%; inactive means above about -30%; further: on the % scale 0 is the no-effect control and ±100 the full control effect; compound concentration not given in the record
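GST-E1A and His-tagged CtBP (125 nM each as 5X stock) were preincubated with pin-transferred compound for 2 h at 37 °C in the dark, then glutathione donor and nickel acceptor beads were added for 1 h before AlphaScreen reading.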
Menin-MLL FL inh: displaces fluorescein MLL peptide from human menin; Fluorescence polarization, fluorescein-MLL peptide displacement from menin; AID 1766; 290,000 tested, under 10 active; FP activity change, % at 61.4 µM; inconclusive = falling polarisation curve, or a change in total fluorescence; inactive = total fluorescence flat and polarisation flat or rising; no compound was filed as active; the % refers to the polarisation; negative = inhibition;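 further: % of control where 0% means no effect; inhibitors lower the polarisation; unlabelled MLL peptide was the positive control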
gsp agonist: gsp mutant agonism. gsp mutant cells, cAMP HTRF, 30 min; control for the full effect not named in the record. Potency, µM (doses to about 76.9 µM), without a hit: top-dose activation (cAMP increase), hits mostly activators. AID 624287. 0.13% of 340,000 active; active = well fitted activation curve with a large enough effect; inconclusive = small, poorly fitted or top-dose-only effect, or another doubt; inactive = no such curve, though single readings can be large or run the other way; cell line not stated here;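 further: phosphodiesterase inhibitor Ro 20-1724 added with compounds to block cAMP breakdown; potency means the concentration at half of the fitted maximal effect; nearly all actives have a fitted effect of over 60% in size; about a fifth of the inactives were tested at one dose only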
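Cells stably selected in G418 were plated at 2000/well, grown 16-24 hr, then given compounds in DMSO with the PDE inhibitor […] (300 uM solution added) for 30 min at 37C; cAMP was read by HTRF.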
* hit, by the source's call; ? = inconclusive; . = not tested or not shown; & = joins results of further samples; [ ] = remark or other dose.

SMILES	Sfp PPTase inh	ClpP mod	TRPV1 PAM	gsp antagonist	CtBP-E1A inh	Menin-MLL FL inh	gsp agonist
Cc1ccc2nc(-c3ccc(NC(=O)COCC(=O)O)cc3)sc2c1	-1.6%	.	6.1	5.0%	-27.1	3.6	-5.4%[15.4 µM]
CC(NC(=O)c1ccc(C(F)(F)F)cc1)C(c1ccccc1)N1CCOCC1 (stereo not given)	12.3%	.	-11.7	0.9%	-9.7	7.9	-29.8%
O=S1(=O)CC/C(=N/Nc2ccccn2)c2cc(F)ccc21	3.7%	-1.2%	-0.7	-8.7%	0.1	-3.8	1.2%
CCOC(=O)c1ccc(-n2c(CC)nc3ccccc3c2=O)cc1	8.0%	.	5.5	.	.	3.5	.
O=C(NC1CCC(O)CC1)c1cccc2cccnc12 (stereo not given)	11.3%	.	-1.4	14.4%	1.3	-7.8	8.0%[15.4 µM]
Cc1nc(S(=O)(=O)c2ccc(Cl)cc2Cl)nc2c1CCC2	2.8%	-0.7%	.	-10.1%	0.8	3.2	7.9%
Cc1cccc(CC(C)NC(=O)CCc2nnc(-c3ccccc3)o2)n1 (stereo not given)	14.6%	2.3%	-19.1	10.3%	-0.8	-2.0	7.1%
Cc1oc2ccc(NS(=O)(=O)c3ccccc3)cc2c1C(=O)Nc1ccccc1	0.7%	.	?	-16.1%	6.7	4.6	5.0%[15.4 µM]
Cc1cccc(NC(=O)CNC(=O)c2cn(Cc3ccccc3)nc2-c2cccnc2)c1C	.	-2.2%	-3.5	-0.5%	-15.0	.	1.6%
COCCC(=O)N1CCCC(CCC(=O)NCc2ccc(F)c(F)c2)C1 (stereo not given)	25.8%	.	2.8	-3.2%	0.0	1.5	-10.0%
CC(NC(=O)c1cccc(S(=O)(=O)N2CCN(C)CC2)c1)C1CC2CCC1C2 (stereo not given)	16.4%	.	3.6	-25.3%	20.8	-4.9	6.7%[15.4 µM]
CCOc1ccc(Br)cc1S(=O)(=O)NCCN1CCCC1	3.6%	0.0%	?	13.1%	.	4.2	0.8%
Cc1cccc(OCc2nnc(N)s2)c1C	13.6%	-0.6%	-4.3	-5.7%	5.7	2.6	16.4%
COc1ccc(NC(=O)CN2C(=O)c3cccc4cccc2c34)c(OC)c1	-3.9%	2.2%	21.3	10.2%	10.6	1.7	12.9%
CCCOC(=O)c1ccc(NC(=O)c2cc(OC)c(OC)c(OC)c2Br)cc1	2.8%	-1.7%	10.7	-27.5%	-1.0	-8.4	-29.8%
Nc1ncnc(Nc2cc(C(F)(F)F)cc(C(F)(F)F)c2)n1	13.6%	2.3%	12.1	3.8%	3.1	0.5	?
COc1cc(C(=O)N2CCN(C(=O)c3ccco3)CC2)cc(OC)c1OC	-8.0%	0.4%	4.0	7.5%	2.9	-1.3	-27.8%
CC1CCCN(C(=O)COC(=O)C2=COCCO2)C1 (stereo not given)	.	.	.	4.3%	3.1	.	-11.1%
Cn1c(C(=O)N2CCC(C(=O)NCc3ccccc3)CC2)cc2sccc21	17.5%	-1.1%	0.4	-5.6%	-4.8	.	8.7%
Cc1ccc(OCC(=O)N2CCCCCCC2)cc1	15.8%	-2.9%	-8.3	0.2%	-2.8	-3.6	-7.8%[15.4 µM]
COc1cc2ncnc(NCCCN3CCOCC3)c2cc1OC	4.5%	-23.9%	?	5.8%	.	6.9	?
COc1ccc([N+](=O)[O-])cc1NC(=O)C(C)c1ccccc1 (stereo not given)	-2.9%	1.3%	-12.0	-7.4%	5.8	0.3	8.2%
Cc1ccccc1/C=C/C12NC(=O)CN1c1ccccc1C2(C)C (stereo not given)	16.3%	1.1%	2.5	-12.9%	-1.9	0.6	-2.2%[15.4 µM]
CCC(C)n1c(SCC(=O)N(CC)c2c(N)n(Cc3ccccc3)c(=O)[nH]c2=O)nc2ccccc2c1=O (stereo not given)	.	-4.6%	.	0.2%	-14.3	.	17.9%
CCCCOC(=O)c1ccc(NS(=O)(=O)c2cc(-c3nnnn3CC)ccc2OC)cc1	-13.1%	-2.2%	2.3	-20.6%	0.5	3.6	4.0%

Further compounds
SMILES	Sfp PPTase inh	ClpP mod	TRPV1 PAM	gsp antagonist	CtBP-E1A inh	Menin-MLL FL inh	gsp agonist
COc1ccc(NS(=O)(=O)c2cccc(C(=O)NCc3cccnc3)c2)cc1	.	43.5%	3.3	6.4%	0.5	.	-54.6%[inhibitor]
O=C(CN1C(=O)CSC1=O)N1CCc2ccccc2C1	-0.1%	-3.8%	5.5	-3.1%	2.6	1.4	?
Cc1cc(-c2nn(-c3ccccc3F)cc2CN2CCCC(CO)C2)c(C)s1 (stereo not given)	17.8%	.	-7.2	4.3%	-1.4	-0.9	-19.8%
CCOc1nc(C)ccc1-c1noc(-c2cccnc2)n1	13.1%	-1.8%	20.9	2.8%	.	-3.0	-25.4%
CN(C)c1ccc(/C=N/N=C2/SC(CC(=O)O)C(=O)N2c2ccc(O)cc2)cc1 (stereo not given)	-15.1%	.	4.2	-1.1%	-1.1	1.4	4.9%[15.4 µM]
CC(=O)Nc1cccc(/C(C)=N/NC(=O)c2ccc3c(c2)OCO3)c1	0.6%	.	-6.3	-10.9%	22.3	1.6	8.4%[15.4 µM]
O=[N+]([O-])c1cccnc1Nc1ccc(Cl)cc1	.	1.8%	.	.	-13.4	.	?
O=C(Nc1ccc(S(=O)(=O)N2CCCCC2)cc1)c1cnccn1	4.6%	1.4%	-7.4	3.6%	-0.8	10.0	16.7%
CCCCNc1cnn(-c2ccccc2)c(=O)c1Cl	3.1%	-1.2%	6.8	7.6%	0.6	0.0	-0.7%[15.4 µM]
CCOC(=O)Cn1cc(/C=N/NC(=O)c2cc3ccccc3o2)c2ccccc21	-0.6%	0.0%	-26.2	?	-3.3	4.1	0.3%[15.4 µM]
COc1ccc(NC(=S)NCCCN2CCCC2=O)c(OC)c1	39.8µM*	.	9.3	0.0%	-2.7	4.2	-2.5%[15.4 µM]
O=C(/C=C/c1ccc[nH]1)c1ccc(F)cc1	-14.0%	-1.8%	-7.5	-3.2%	5.5	3.8	-32.6%[inhibitor]
COc1cccc(NC(=O)CSc2nc3scc(C)c3c(=O)[nH]2)c1	6.4%	.	18.7	-0.4%	-7.4	.	-8.5%[15.4 µM]
CCOC(=O)c1cccc(NC(=O)c2ccc(F)cc2F)c1	.	-2.8%	.	-10.8%	1.1	.	?
Cc1ccc(Cc2nnc(SCC(=O)Nc3ccccc3Cl)[nH]c2=O)cc1	.	-1.7%	13.2	-7.0%	-4.1	.	-31.1%[inhibitor]
CCOC(=O)C1Nc2c(cc(C(F)(F)F)cc2[N+](=O)[O-])C2c3ccccc3CC12 (stereo not given)	.	-3.6%	.	-6.5%	?	.	14.8%
COCCNC(=S)N(CCCO)Cc1cc2cc3c(cc2[nH]c1=O)OCO3	.	-21.6%	.	.	7.4	.	-94.2%[inhibitor]
O=C(Nc1cccc(C(=O)O)c1)/C(=C\c1ccccc1)NC(=O)c1ccco1	.	1.1%	.	.	2.3	.	-56.1%[inhibitor]
Cc1cc(C(=O)Nc2ccc(C)c(C)c2)n(-c2ccccc2)n1	7.1%	-2.6%	10.9	1.5%	14.9	-0.9	-4.1%[15.4 µM]
Cc1ccc(Nc2nc(N)[nH]c(=O)c2N=O)cc1	?	-3.0%	-24.1	-4.1%	.	.	-68.8%[inhibitor]
COC(=O)c1ccc(CNC(=O)CCc2c[nH]c3ccccc23)cc1	12.3%	.	-1.5	-4.2%	3.3	5.0	3.3%
O=C(CCC(=O)c1ccc[nH]1)c1ccc(Cl)cc1	-18.8%	1.7%	-2.8	-2.9%	0.2	0.1	-19.6%
COc1cc(NC(=S)NCCSc2ccc(C)cc2)cc(OC)c1	11.1%	1.3%	-38.7	-1.0%	-2.7	1.2	6.1%
COc1ccc(N2CCN(C(=O)COC(=O)CCOc3ccc(C)cc3)CC2)cc1	.	.	-7.9	6.0%	-1.6	.	-12.6%[15.4 µM]
CCCCOc1ccccc1NC(=O)C=C(C)C	5.1%	-1.8%	17.6	-4.1%	0.0	3.6	22.8%

3 of the entries above in order of their number in gsp antagonist, ascending:
compound | gsp antagonist
CCOC(=O)c1cccc(NC(=O)c2ccc(F)cc2F)c1 | -10.8%
COC(=O)c1ccc(CNC(=O)CCc2c[nH]c3ccccc23)cc1 | -4.2%
O=C(/C=C/c1ccc[nH]1)c1ccc(F)cc1 | -3.2%

Continuation:
SMILES	Sfp PPTase inh	ClpP mod	TRPV1 PAM	gsp antagonist	CtBP-E1A inh	Menin-MLL FL inh	gsp agonist
COc1cc(NC(=O)NCC2CCN(Cc3ccccc3Cl)CC2)cc(OC)c1OC	3.5%	-1.3%&-0.6%	8.9	9.7%	-12.7	-2.4	8.4%
COc1cccc(N(CC(=O)Nc2cccc(C(C)=O)c2)S(C)(=O)=O)c1	3.0%	-0.2%	-3.1	-10.9%	2.8	4.4	-17.9%
COC(=O)c1sc(NC(=O)CC(C)C)c(C(=O)OC)c1C	15.0%	5.5%	-4.2	4.0%	3.6	-0.8	-26.2%
Cc1ccccc1OCC(O)Cn1c(NCc2ccccc2)nc2c1c(=O)[nH]c(=O)n2C (stereo not given)	19.1%	-17.7%	1.8	4.2%	-12.1	2.0	-11.2%
COc1cc(C(C[N+](=O)[O-])c2c(C)cc3ccccn23)ccc1O (stereo not given)	?	.	6.6	-1.1%	-5.1	4.6	-1.8%[15.4 µM]
Cc1no[n+]([O-])c1COc1ccccc1/C=N/n1nnnc1N	1.4%	-4.8%	-7.3	0.3%	-12.8	0.2	15.7%
CN1CCc2nc(SCC(=O)Nc3ccc(OC(F)(F)F)cc3)c(C#N)c(-c3cccs3)c2C1	50.1µM*	1.8%	0.4	-3.4%	0.1	.	?
Cn1nnnc1SCc1ccc(Cl)cc1	15.4%	0.9%	3.5	14.7%	10.6	1.9	-22.9%
CCCCCOc1ccc(CSC(=N)N)cc1[N+](=O)[O-]	-26.0%	-1.9%	-4.3	5.7%	10.6	-1.6	21.8%
COc1ccc(CCNS(=O)(=O)CCNC(=O)c2ccc3c(c2)OCO3)cc1OC	.	.	-1.9	2.2%	0.4	.	22.7%[15.4 µM]
